Bioassay records: PubChem, several laboratories
ALR inh: inhibitors of human sulfhydryl oxidase ALR; purified ALR, DTT oxidation, H2O2 HRP-luminol luminescence; inhibition, % (test concentration not listed); 290,000 compounds, 3.8% hits; AID 485317;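 active = mean and each replicate at 75% or more; inconclusive = only one of the two met; inactive = neither met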;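 also: stock transfer was 7.5 nL into about 7.5 µL; 0% = neutral wells and 100% = wells with inactivated enzyme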
Target sequence (P55789 whole entry, looked up): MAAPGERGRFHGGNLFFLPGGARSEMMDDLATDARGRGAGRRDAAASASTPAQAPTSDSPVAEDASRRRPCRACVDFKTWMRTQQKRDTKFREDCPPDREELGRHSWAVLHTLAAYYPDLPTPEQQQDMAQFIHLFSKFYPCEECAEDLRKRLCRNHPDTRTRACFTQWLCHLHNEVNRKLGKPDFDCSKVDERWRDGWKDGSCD
T cruzi inh: blocks replication of Trypanosoma cruzi; 300,000 compounds, 1.4% hits; inhibition, % (concentration not given with the values); T. cruzi beta-gal in NIH3T3, luminescence, 90 h; AID 1885;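 active = mean inhibition across valid replicates above about 55%, limit read from the data; inconclusive = mean below that limit but half or more replicates reach it; inactive = mean below it, under half of replicates reach it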;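 also: signal also drops with host cell toxicity which is not excluded here; 0% = plate median of DMSO wells and 100% = zero luminescence signal; higher percent means less beta-gal luminescence so fewer parasites; stock transfer was 50 nL into about 50 µL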
Bfl-1 A1 inh: inhibitors of the anti-apoptotic protein A1, read as caspase activation; MEF A1-2A-BIM cells, Caspase-Glo 3/7 luminescence, 3 h; percent of clofoctol response, vehicle zero; caspase activation, % (no concentration beside the values); 330,000 compounds, 0.066% hits;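 active = over half of replicate activation scores above 10%, or exactly half above 10 with the replicate mean above 10; inconclusive = replicate mean below 10 yet half the replicates above 10; inactive = over half of replicates below 10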;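 also: wells of about 30 µL received 50 nL stock; many hits fall short of the cut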
LANA-H2B inh: blocks KSHV LANA binding to histone H2A/H2B | Q9QR71 | 320,000 compounds, 0.6% hits | cell-free LANA-H2A/H2B peptide, fluorescence polarization | inhibition, % (no concentration beside the values); in the data active = inhibition mostly above about 10%, no sharp cut-off; inactive = mostly below about 6.7%;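 also: stock transfer was 7.5 nL into about 10 µL; 0% = median of vehicle wells and 100% = median of positive control wells; one replicate is shown; the record names a cut of 25% in any replicate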
Beta cell apopt: blocks beta cell apoptosis; INS-1E cytokine-induced death, ATP luminescence, 48 h; percent of positive-control rescue, neutral wells zero; protection from apoptosis, % (concentration not given with the values); 300,000 compounds, 0.8% hits; AID 435005;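 active = all replicates at 75% or more, or half of them and the mean; inconclusive = half reach 75% but not the mean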;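 also: 0% = cytokine-treated negative control wells and 100% = positive control rescue; higher means more ATP so stronger rescue from cytokine killing; wells of about 40 µL received 100 nL stock; the first replicate is given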
B2AR ag: human beta-2 adrenergic receptor agonism by FAP. Am2.2-beta2AR cells, FAP receptor internalization, flow cytometry; reference of the scale not given here. P07550. 340,000 compounds, 0.43% hits. response, % (concentration not given with the values);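 active = response above a set limit, near 3 SD of response in nonfluorescent compounds, cut at about 42% in these data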;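 also: stock transfer was 100 nL into about 11 µL; a reference agonist was the positive control; negative values mostly stem from fluorescent compounds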
Target sequence (P07550 whole entry, looked up): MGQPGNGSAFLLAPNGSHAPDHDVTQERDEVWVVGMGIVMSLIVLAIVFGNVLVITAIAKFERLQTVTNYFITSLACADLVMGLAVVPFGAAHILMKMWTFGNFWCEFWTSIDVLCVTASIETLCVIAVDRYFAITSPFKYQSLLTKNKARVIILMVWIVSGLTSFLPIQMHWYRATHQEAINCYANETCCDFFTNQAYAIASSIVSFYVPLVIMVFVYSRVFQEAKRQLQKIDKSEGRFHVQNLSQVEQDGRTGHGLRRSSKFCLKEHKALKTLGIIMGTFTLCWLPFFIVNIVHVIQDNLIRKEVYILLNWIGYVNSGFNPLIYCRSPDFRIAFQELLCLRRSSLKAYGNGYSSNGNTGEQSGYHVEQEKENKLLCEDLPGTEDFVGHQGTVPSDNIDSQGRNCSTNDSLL
Calb FLC: affects C. albicans growth with fluconazole; growth inhibition, % (no concentration beside the values); C. albicans CaCi-2 (fluconazole-resistant clinical isolate) + fluconazole, Alamar Blue growth, 48 h; 300,000 compounds, 0.57% hits;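 active = most replicates above 75%; inconclusive = exactly half above 75%; inactive = most below 75%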;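 also: all wells also contain fluconazole at 8 µg/ml as a sub-toxic cotreatment; 0% = median of DMSO wells and 100% = median of geldanamycin control wells; wells of about 8 µL received 7.5 nL stock; the first replicate is given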
rRNA inh HTS: inhibitors of bacterial rRNA selective over humanized ribosomes. E. coli WT GFP vs humanized-ribosome RFP mutants, fluorescence, 24 h; stronger effect = lower value; DMSO median 0, no signal -100. GFP signal change (wild-type ribosome), % (concentration not given with the values). AID 720706. 350,000 compounds, 1.6% hits;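 active = significant combined selectivity score with lowered wild-type GFP, culture density cut under 30%, mutant RFP and density less affected; inactive = any of these conditions unmet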; also: one replicate is shown; some compounds called inactive have numbers as strong as hits
rRNA inh HTS OD600: further read-out of rRNA inh HTS, marked with its call; OD600 change, %; measured here: OD600 growth;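 optical density of the mix in the first replicate; 0 = DMSO median and -100 = no signal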
rRNA inh HTS RFP: second read-out of rRNA inh HTS, no call of its own (marks repeat the call); RFP signal change, %; measured here: RFP humanized mutant strains;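 first replicate; 0 = DMSO median and -100 = no signal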
* = called active by the depositor. The list is partial (hit frequency here may not be typical).

Results for CC(C)Cc1ccc(C(=O)Nc2ccc(Cc3ccncc3)cc2)o1 ?
ALR inh: 16; T cruzi inh: 19; Bfl-1 A1 inh: 1.1; LANA-H2B inh: -3.7; B2AR ag: 7; Calb FLC: 0; rRNA inh HTS: -24; rRNA inh HTS OD600: -32; rRNA inh HTS RFP: 2.0

How did O=C(OCC(=O)N1CCCCC1)c1ccc2c(c1)C(=O)N(Cc1ccco1)C2=O do in these assays?
ALR inh: 2; Bfl-1 A1 inh: -0.3; LANA-H2B inh: 4.7; Beta cell apopt: -5; B2AR ag: -1; rRNA inh HTS: 0; rRNA inh HTS OD600: 3; rRNA inh HTS RFP: -2.1

What do the screens show for `CC1(C)CC(=O)c2sc(NC(=O)C3CC3)nc2C1`?
ALR inh: -8; T cruzi inh: -4; Bfl-1 A1 inh: 0.6; LANA-H2B inh: -1.2; Beta cell apopt: -6; B2AR ag: -24; Calb FLC: 3; rRNA inh HTS: -4; rRNA inh HTS OD600: 0; rRNA inh HTS RFP: -0.9

How did CCOC(=O)CSc1ccc2nnc(-c3ccncc3)n2n1 do in these assays?
ALR inh: -2; T cruzi inh: -16; Bfl-1 A1 inh: 0.3; LANA-H2B inh: -4.3; Beta cell apopt: -1; B2AR ag: -9; Calb FLC: -10; rRNA inh HTS: 4; rRNA inh HTS OD600: 8; rRNA inh HTS RFP: 1.3

Results for Cc1c(OCC(=O)NCc2ccncc2)ccc2c3c(c(=O)oc12)CCC3 ?
ALR inh: -1; T cruzi inh: 1; Bfl-1 A1 inh: -1.8; LANA-H2B inh: -2.5; Beta cell apopt: 4; B2AR ag: 2; Calb FLC: 2; rRNA inh HTS: 5; rRNA inh HTS OD600: 8; rRNA inh HTS RFP: 0.9

Results for CCOC(=O)N1CCC(NC(=O)CC2C(=O)NCCN2Cc2ccc(C)cc2)CC1 (centres undefined) ?
ALR inh: -1; T cruzi inh: -5; Bfl-1 A1 inh: -0.3; LANA-H2B inh: 4.7; Beta cell apopt: -3; B2AR ag: -3; Calb FLC: 4; rRNA inh HTS: 17; rRNA inh HTS OD600: 8; rRNA inh HTS RFP: 1.1

Results for CC(=O)N1CCN(c2nc3cc4c(cc3nc2NS(=O)(=O)c2ccccc2)OCCO4)CC1 ?
T cruzi inh: 6; Bfl-1 A1 inh: 2.2; LANA-H2B inh: 5.8; Beta cell apopt: -2; B2AR ag: 6; Calb FLC: 2

What do the screens show for `FC(F)(F)c1nnc2ccc(N3CCCC3)nn12`?
ALR inh: -14; T cruzi inh: 1; Bfl-1 A1 inh: 0.3; LANA-H2B inh: -2.2; B2AR ag: -17; Calb FLC: -2

What do the screens show for `Cc1ccccc1NC(=O)C1CC(=O)n2ncnc2N1` (centres undefined)?
ALR inh: -1; T cruzi inh: -5; Bfl-1 A1 inh: 0.3; LANA-H2B inh: -2.6; Beta cell apopt: -6; B2AR ag: -1; Calb FLC: -2; rRNA inh HTS: 6; rRNA inh HTS OD600: 10; rRNA inh HTS RFP: -0.7

What do the screens show for `Cc1ccccc1NC(=O)CSc1nnc(-c2ccccn2)o1`?
ALR inh: -5; T cruzi inh: 1; Bfl-1 A1 inh: 0.3; LANA-H2B inh: 4.0; Beta cell apopt: -4; B2AR ag: 9; Calb FLC: 2; rRNA inh HTS: 3; rRNA inh HTS OD600: 2; rRNA inh HTS RFP: -1.1

Results for Clc1ccc(-c2csc3ncnc(Cl)c23)cc1 ?
ALR inh: -5; T cruzi inh: -30; Bfl-1 A1 inh: 0.5; LANA-H2B inh: 2.3; B2AR ag: 4; Calb FLC: -16

How did C=CCC1(C(=O)NCCO)CCN(C(=O)OC(C)(C)C)CC1 do in these assays?
ALR inh: 0; T cruzi inh: -14; Bfl-1 A1 inh: 0.4; LANA-H2B inh: 0.7; Beta cell apopt: -7; B2AR ag: -16; Calb FLC: 13; rRNA inh HTS: 11; rRNA inh HTS OD600: 18; rRNA inh HTS RFP: 21

What do the screens show for `Cc1ccc(OC2=NS(=O)(=O)c3ccccc32)cc1`?
ALR inh: -5; T cruzi inh: -2; Bfl-1 A1 inh: 0.7; LANA-H2B inh: -1.0; Beta cell apopt: -4; B2AR ag: -1; Calb FLC: -5

What do the screens show for `COc1cc(C)c(C(=O)Oc2cc(C)c(C(=O)O)c(O)c2)c(O)c1`?
ALR inh: 58; T cruzi inh: -2; Bfl-1 A1 inh: 0.6; LANA-H2B inh: 1.7; Beta cell apopt: -2; B2AR ag: 8; Calb FLC: -9

How did O=C(O)c1cc(-c2ccccc2)n(-c2ccc(Cl)cc2Cl)n1 do in these assays?
T cruzi inh: -2; Bfl-1 A1 inh: 0.5; LANA-H2B inh: 11; B2AR ag: 5; Calb FLC: -9; rRNA inh HTS: -16; rRNA inh HTS OD600: -5; rRNA inh HTS RFP: 1.7

Results for Clc1ccc(-c2noc(/C=C/c3ccccc3)n2)cc1 ?
T cruzi inh: -8; Bfl-1 A1 inh: -0.2; LANA-H2B inh: 8.2; Beta cell apopt: -9; B2AR ag: 4; Calb FLC: 4; rRNA inh HTS: 8; rRNA inh HTS OD600: -13; rRNA inh HTS RFP: -3.0

Results for Cn1nc(C(=O)NCc2ccco2)c2ccccc2c1=O ?
ALR inh: -3; T cruzi inh: -7; Bfl-1 A1 inh: 0.6; LANA-H2B inh: 0.2; Beta cell apopt: -6; B2AR ag: -1; Calb FLC: 1; rRNA inh HTS: 4; rRNA inh HTS OD600: -2; rRNA inh HTS RFP: -3.0

How did COCCNC(=S)N/N=C1\CC(C)CC(C)(C)C1 (centres undefined) do in these assays?
ALR inh: 36; T cruzi inh: -14; Bfl-1 A1 inh: 0.3; LANA-H2B inh: 3.7; Beta cell apopt: -2; B2AR ag: -3; Calb FLC: -6; rRNA inh HTS: -3; rRNA inh HTS OD600: -5; rRNA inh HTS RFP: -2.2

What do the screens show for `O=C(NN(c1ccccc1)c1ccccc1)c1ccccc1F`?
ALR inh: -1; T cruzi inh: -9; Bfl-1 A1 inh: -0.1; LANA-H2B inh: -2.1; Beta cell apopt: 6; B2AR ag: -3; Calb FLC: -9; rRNA inh HTS: -7; rRNA inh HTS OD600: -9; rRNA inh HTS RFP: -2.6

Results for COc1ccc(-c2csc3ncn(-c4ccccc4OC)c(=O)c23)cc1OC ?
ALR inh: -3; T cruzi inh: 4; Bfl-1 A1 inh: 0.5; Beta cell apopt: 2; B2AR ag: 16; Calb FLC: 13; rRNA inh HTS: -26*; rRNA inh HTS OD600: -12*; rRNA inh HTS RFP: 0.4*

What do the screens show for `CCc1ccccc1NC(=O)CC(=O)Nc1ccccc1CC`?
T cruzi inh: -6; Bfl-1 A1 inh: 0.3; LANA-H2B inh: 0.0; Beta cell apopt: 1; B2AR ag: -9; Calb FLC: -1; rRNA inh HTS: 3; rRNA inh HTS OD600: -1; rRNA inh HTS RFP: -2.2

How did O=C(NCc1ccco1)C1CCCN(c2ncnc3c2nc2n3CCCCC2)C1 (centres undefined) do in these assays?
ALR inh: -4; T cruzi inh: -16; Bfl-1 A1 inh: -0.7; LANA-H2B inh: -7.0; Beta cell apopt: -3; B2AR ag: -3; Calb FLC: 12; rRNA inh HTS: -7; rRNA inh HTS OD600: 2; rRNA inh HTS RFP: -7.5

Results for Cc1ccc(F)cc1NC(=O)c1cccc2nccnc12 ?
ALR inh: -5; T cruzi inh: -20; Bfl-1 A1 inh: -0.1; LANA-H2B inh: 0.4; Beta cell apopt: 0; B2AR ag: -19; Calb FLC: -5

What do the screens show for `CCC(C)N(CCNC(=O)CC1Oc2ccccc2NC1=O)C1CCCCC1` (centres undefined)?
ALR inh: -29; T cruzi inh: -3; Bfl-1 A1 inh: 0.4; LANA-H2B inh: 1.5; B2AR ag: 1; Calb FLC: 1; rRNA inh HTS: 5; rRNA inh HTS OD600: -4; rRNA inh HTS RFP: -4.5

How did Cc1nonc1NC(=O)CSc1nc2ccccc2o1 do in these assays?
ALR inh: -1; T cruzi inh: -17; Bfl-1 A1 inh: 0.0; LANA-H2B inh: -7.2; Beta cell apopt: -6; B2AR ag: -3; Calb FLC: 48; rRNA inh HTS: 1; rRNA inh HTS OD600: -8; rRNA inh HTS RFP: -0.7

What do the screens show for `O=C(CCNC(=O)c1ccc(Br)cc1)Nc1cccc(S(=O)(=O)N2CCCCC2)c1`?
ALR inh: -14; T cruzi inh: 3; Bfl-1 A1 inh: -0.6; LANA-H2B inh: 3.5; Beta cell apopt: -4; B2AR ag: 3; Calb FLC: 23; rRNA inh HTS: -12; rRNA inh HTS OD600: -43; rRNA inh HTS RFP: 1.0

Results for Cc1ccc(O)c(C2=NOC(O)(C(F)(F)F)C2)c1 (centres undefined) ?
ALR inh: -3; T cruzi inh: -20; Bfl-1 A1 inh: 0.4; LANA-H2B inh: -1.8; Beta cell apopt: -4; B2AR ag: -5; Calb FLC: -9

Results for O=C(CSc1ncn[nH]1)NN(c1ccccc1)c1ccccc1 ?
ALR inh: 47; T cruzi inh: -4; Bfl-1 A1 inh: 0.0; LANA-H2B inh: -24; Beta cell apopt: -20; B2AR ag: -5; Calb FLC: 9; rRNA inh HTS: 12; rRNA inh HTS OD600: 11; rRNA inh HTS RFP: -1.9

Results for Cc1cc(C(=O)Nc2ccc3[nH]ccc3c2)no1 ?
ALR inh: -11; T cruzi inh: -6; Bfl-1 A1 inh: -4.1; LANA-H2B inh: -1.2; Beta cell apopt: -7; B2AR ag: -5; Calb FLC: -14; rRNA inh HTS: -12; rRNA inh HTS OD600: -10; rRNA inh HTS RFP: 4.6

How did CCOc1ccc(C(C)=O)cc1COC(=O)CNC(=O)C12CC3CC(CC(C3)C1)C2 do in these assays?
ALR inh: -2; Bfl-1 A1 inh: -0.8; LANA-H2B inh: -4.2; Beta cell apopt: -4; B2AR ag: -7; rRNA inh HTS: -24; rRNA inh HTS OD600: -58; rRNA inh HTS RFP: 3.7

Results for Cc1ccc(CC(=O)Nc2nccs2)cc1C ?
ALR inh: 4; T cruzi inh: -12; Bfl-1 A1 inh: 0.1; LANA-H2B inh: 1.2; Beta cell apopt: 3; B2AR ag: -2; Calb FLC: 5; rRNA inh HTS: 4; rRNA inh HTS OD600: 4; rRNA inh HTS RFP: 0.7

How did C/C(=C\C(=O)c1ccc(Cl)cc1)Nc1ccc(Br)cc1 do in these assays?
ALR inh: -1; T cruzi inh: 8; Bfl-1 A1 inh: -2.4; LANA-H2B inh: 5.3; Beta cell apopt: -2; B2AR ag: -1; Calb FLC: -15

Results for COc1cc(CO)cc(Br)c1OCc1cccnc1 ?
ALR inh: -1; T cruzi inh: -20; Bfl-1 A1 inh: 0.3; LANA-H2B inh: 8.8; Beta cell apopt: -1; B2AR ag: -2; Calb FLC: inconclusive

What do the screens show for `CCn1cc(C(=O)NCCN(CC(C)C)CC(C)C)c(=O)c2cc(S(=O)(=O)N3CCOCC3)ccc21`?
ALR inh: -1; T cruzi inh: -10; Bfl-1 A1 inh: 2.5; LANA-H2B inh: -4.9; Beta cell apopt: -7; B2AR ag: 3; Calb FLC: 11; rRNA inh HTS: -2; rRNA inh HTS OD600: -1; rRNA inh HTS RFP: -1.2

What do the screens show for `O=C(NN1C(=O)C2C3c4ccccc4C(c4ccccc43)C2C1=O)c1ccc(Cl)cc1` (centres undefined)?
ALR inh: -11; T cruzi inh: -9; Bfl-1 A1 inh: 0.0; LANA-H2B inh: -1.3; Beta cell apopt: 1; B2AR ag: -2; Calb FLC: inconclusive; rRNA inh HTS: 1; rRNA inh HTS OD600: -3; rRNA inh HTS RFP: 0.7
